miR-21 FLuc: qHTS Assay for Modulators of miRNAs and/orActivators of miR-21. Potency, µM (titrated, usually from 38.3 µM), without a hit: at the highest dose reporter change, positive = more light. 340,000 tested, under 10 active. AID 2288, 2010. HeLa miR-21 FLuc reporter, luciferase, 48 h; active = well fitted rising curve with a large enough effect; inconclusive = small, poorly fitted or top-dose-only effect; inactive = no such curve, though single readings can be large or run the other way;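 note: % of control where 0% means no effect; miR-21 action dims this reporter so a rising signal means less miR-21 action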
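Compounds were titrated across several concentrations (up to approximately 40 uM) and incubated 48 hours with HeLa miR-21-FLuc reporter cells (miR-21 target sequence downstream of FLuc, endogenous miR-21). Readout was firefly luciferase luminescence after lytic detection reagent.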
Rango complex inh: qHTS Assay for Inhibitors of Rango (Ran-regulated importin-beta cargo) - Importin beta complex formation. 0.031% of 340,000 active. Importin subunit beta-1 (Homo sapiens), Q14974. Potency, µM (top dose mostly 92.2 µM), for inactives: at the highest dose inhibition of complex formation. AID 540263, 2011. Rango CFP/YFP FRET sensor + importin beta, 45 min; active = rising FRET ratio curve, often small or poorly fitted; inconclusive = mostly compound fluorescence or quenching in the first reads; inactive = flat curves in all reads;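 note: potency is the fitted concentration of half-maximal effect; 0% = DMSO wells and 100% = buffer wells lacking importin beta; nearly all actives have a fitted effect of over 15% in size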
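FRET biosensor Rango (snurportin 1 IBB between N-terminal EYFP and C-terminal Cerulean), 50 nM in PBS/1 mM DTT/0.02% Tween-20/0.1% BSA, preincubated 5 min RT with compound; 0.125 microM importin beta added, 45 min RT, CFP/YFP FRET ratio read.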
GLA inh pH 4.5: qHTS Assay for Inhibitors of Human alpha-Galactosidase at pH 4.5; Alpha-galactosidase A (Homo sapiens), P06280; purified enzyme, 4-MU-alpha-Gal fluorescence, pH 4.5; activity change, negative = inhibition, % at 105 µM; 230,000 tested, under 10 active; inconclusive = small, poorly fitted or top-dose-only inhibition, or a rising curve; inactive = flat fitted curve, though single readings scatter; no compound was filed as active;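 note: 0% = full activity with enzyme and -100% = basal without enzyme; dose as in the result columns while the protocol names 77 µM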
Target sequence (P06280 whole entry, looked up): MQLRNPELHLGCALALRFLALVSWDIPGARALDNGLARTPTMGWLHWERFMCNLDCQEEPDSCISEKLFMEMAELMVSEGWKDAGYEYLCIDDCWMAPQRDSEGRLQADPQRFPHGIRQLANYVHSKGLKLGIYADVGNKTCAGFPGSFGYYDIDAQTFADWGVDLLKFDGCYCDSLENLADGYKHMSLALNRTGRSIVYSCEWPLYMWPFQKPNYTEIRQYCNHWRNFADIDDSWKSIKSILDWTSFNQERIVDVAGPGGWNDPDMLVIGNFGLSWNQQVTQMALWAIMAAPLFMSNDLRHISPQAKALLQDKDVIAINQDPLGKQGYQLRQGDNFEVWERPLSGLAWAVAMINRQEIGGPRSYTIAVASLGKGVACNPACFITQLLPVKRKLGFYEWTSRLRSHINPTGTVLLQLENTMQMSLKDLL
Rango dissoc inh: qHTS Assay for Inhibitors of RanGTP induced Rango (Ran-regulated importin-beta cargo) - Importin beta complex dissociation; Snurportin-1 (Homo sapiens) + GTP-binding nuclear protein Ran (Homo sapiens) + Importin …; Biochemical FRET Rango-importin beta, RanGTP-induced dissociation; Potency, µM (doses to about 46.1 µM), for inactives: at the top dose activity change, negative = inhibition; 0.071% of 340,000 active; AID 540253, 2011; active means falling FRET ratio curve, often poorly fitted, with flat reads before Ran was added; inconclusive means other falling curves, or compound fluorescence or quenching; inactive means flat or rising ratio curve;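 note: potency is the fitted concentration of half-maximal effect; % of control where 0% means no effect; nearly all actives have a fitted effect of over 45% in size; -100% = wells without RanGTP and RCC1; the record marks most hits as doubtful in a second field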
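Quantitative HTS using a FRET biosensor: 0.1 uM Rango, 0.25 uM importin beta, 0.6 uM Ran, 2 mM GTP, 0.2 uM RCC1 final, PBS with DTT, Tween-20 and BSA. Post-read taken 45 min after Ran addition.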
An asterisk follows results filed as active; ? = inconclusive; nt = not tested or not shown; & = joins results of further samples; [ ] = remark or other dose. These rows are one share of the data; count on the stated rates, not on these rows.

SMILES | miR-21 FLuc | Rango complex inh | GLA inh pH 4.5 | Rango dissoc inh
CCCN=C1N(C)C[C@@H]2[C@@H]3C(=O)N(C)C(=O)[C@@H]3[C@](C)(C(=O)OC)N12 | nt | 0.3% | nt | 8%
CCOC(=O)CNc1nc(Cl)nc(Nc2ccccc2)n1 | -11% | -2.5% | 0 | 1%
Cc1cc(C)c2[nH]c(O)c(N=NC(=S)NCC3CCCO3)c2c1 (stereo unspecified) | 2% | -4.4% | -5 | 25%
Cc1cc(NC(=O)c2ccc(C#N)cc2)on1 | -17% | -0.2% | 2 | 7%
COC(=O)c1cc(NC(=O)CN(c2ccccc2OC)S(=O)(=O)c2ccccc2)ccc1Cl | 7% | 0.2% | -8 | 1%
COc1cccc(NC(=O)c2ccc[n+](C)c2)c1 | -1% | -0.9% | nt | 9%
Cn1nc([N+](=O)[O-])nc1N1CCOCC1 | -3% | -0.1% | 2 | -3%
COCCNC(=S)Nc1ccc2nc(N3CCN(C)CC3)cc(C)c2c1 | -4% | 2.3% | nt | 0%
CCOCCn1c(=NC(=O)c2cc3ccccc3oc2=O)sc2cc(S(N)(=O)=O)ccc21 | -2% | -6.4% | 2 | 4%
Cc1ccc(-n2ncc3c(SCc4cccnc4)ncnc32)c(C)c1 | 5% | -1.7% | -3 | 3%
C=CCNC(=S)NNC(=O)c1ccc(OCCCC)cc1 | -2% | -2.4% | -5 | -3%
CCn1c(CNC(=O)c2ccc3c(c2)OCO3)nnc1SCC(=O)Nc1cc(C)ccc1OC | -2% | -0.3% | -6 | 8%
CCOC(=O)c1sc2nc(N3CCOCC3)c3c(c2c1N)CC(C(C)C)OC3 (stereo unspecified) | -3% | 0.2% | -9 | -1%
CCOC(=O)c1c(C)[nH]c(C)c1S(=O)(=O)N(C)CC(=O)NCc1cccc(Br)c1 | -8%&-9% | 0.7% | nt | -9%
O=c1c(O)c(-c2ccc(O)c(O)c2)oc2cc(O)cc(O)c12 | -15% | 15% | -16&-5&-11&6&-11&2 | 0%
CN(C)S(=O)(=O)c1ccc(NC(=O)CN2CCC(Cc3ccccc3)CC2)cc1 | 3% | -2.2% | ? | 1%
COCCCn1c(SCc2cccc(C(F)(F)F)c2)nc2cc(OC)c(OC)cc2c1=N | 16% | 0.8% | 8 | 6%
CC(C)N(CC#CC(O)(c1ccccc1)c1ccccc1)C(C)C | 3% | -3.3% | -18 | 47%
COc1cccc(C2=CC(=O)C[C@H](c3ccc(OC)c(OC)c3)C2)c1 | nt | -2.1% | nt | 16%
O=C(c1ccc(N2CCOCC2)c([N+](=O)[O-])c1)N1CCN(c2ccccc2F)CC1 | nt | 1.9% | nt | -7%
CC(C)(C)OC(=O)C[C@@H]1C/C=C\C[C@@H](CC(=O)N(CCO)Cc2ccccc2)C(=O)N2CCC[C@H]2COC1=O | nt | -0.3% | nt | -7%
COC(=O)N/N=C(\C)c1ccco1 | -7% | -2.4% | -4 | 8%
COc1ccc(Cn2c(CCC(=O)O)nc3cccnc32)cc1 | -8% | 7.1% | -7 | -7%
CC[C@]12c3[nH]c4cc(CCC(=O)N(C)C)ccc4c3CCN1C(=O)[C@@H](CC(=O)NCC13CC4CC(CC(C4)C1)C3)C[C@@H]2C(=O)N1CCN(C(=O)c2ccco2)CC1 | nt | -0.1% | nt | -2%
COc1ccccc1C(=O)N1CC2(C)CC1CC(C)(C)C2 (stereo unspecified) | -1% | 0.3% | -10 | 0%
NC(=O)C(Cc1ccccc1)N1C(=O)c2ccccc2C1=O (stereo unspecified) | 1% | -2.0% | 1 | -1%
CCc1ccc(NC(=O)C(=O)NCc2ccccn2)cc1 | -58% | -4.0% | -30 | -4%
O=C(Nc1ccccc1)OC1CCCCc2cccnc21 (stereo unspecified) | -17% | -1.7% | 1 | -8%
Cc1ccc(CN2CCN(Cc3ccc4ncccc4c3)CC2CCO)cc1 (stereo unspecified) | -4% | -0.2% | 2 | 5%
Cc1c(NC(=O)CSc2ccc(Cl)cc2)cccc1-c1nc2ncccc2o1 | 17% | -0.5% | -4 | 10%
CNc1nc(C)c(C#N)c(-c2ccccc2)c1C(C)=O | -42% | 0.6% | -5 | 9%
COc1ccc(/C=C/C(=O)Nc2cc(S(=O)(=O)N3CCCCC3)ccc2N2CCCCC2)cc1OC | -2% | -1.2% | -1 | -10%
Cc1cc(C(F)F)nn1CC(=O)NC1C(=O)N2C(C(=O)O)=C(CSc3nnnn3C)CSC12 (stereo unspecified) | 1% | 5.1% | -1[21.1 µM] | -10%
O=[N+]([O-])c1cc(C(F)(F)F)ccc1NCCc1c[nH]c2ccccc12 | -13% | 0.6% | -17 | 6%
COc1ccc(-n2c(C)cc(C(=O)CN3C(=O)NC4(CCc5ccccc54)C3=O)c2C)cc1 (stereo unspecified) | -8% | 0.6% | -5 | -8%
CN(C)c1nc(C(=O)OCCO)nc(N(C)C)n1 | -10% | 3.3% | 0 | ?
CC(=O)c1sc(NC(=O)c2ccc(Cl)cc2)nc1C | -39% | -0.5% | -10 | 1%
Cc1nc(NCCC(C)C)c2nnn(Cc3ccccc3)c2n1 | 0% | -0.5% | nt | -13%
CC1(C)NC(=O)N(CCOc2cccc(Oc3ccccc3)c2)C1=O | -35% | -1.2% | -6 | 13%
COC(=O)c1cc(S(=O)(=O)NCCc2ccccc2)c[nH]1 | 5% | -3.4% | nt | 14%
Cc1onc(-c2c(F)cccc2Cl)c1C(=O)Nc1c(C)n(C)n(-c2ccccc2)c1=O | 2% | 0.5% | 4 | -1%
CCCC(=O)Nc1cccc(NC(=O)c2cccc([N+](=O)[O-])c2C)c1 | 1% | -0.8% | -3 | -1%
Cn1ncc(N=Cc2c(O)ccc3ccccc23)c1C(=O)Nc1cccc(Cl)c1 | 0% | ? | 4 | ?
COc1ccc(CCN(Cc2cc3cc(C)ccc3[nH]c2=O)C(C)=O)cc1OC | 1% | 0.1% | 0 | 4%
O=C(Nc1cccc(F)c1)C1CCCN(S(=O)(=O)c2ccc(-n3cnnn3)cc2)C1 (stereo unspecified) | 13% | -0.1% | nt | -2%
O=S(=O)(c1ccccc1)N1CCN(Cc2ccccc2)CC1 | -3% | -0.2% | nt | 2%
Cc1ccc(-c2cn3cc([N+](=O)[O-])ccc3n2)cc1 | 6% | 2.4% | -3 | 8%
COc1ccc(-c2csc(NC(=O)[C@H](C)N3C(=O)C4CC=CCC4C3=O)n2)cc1OC (stereo partly specified) | nt | -1.7% | nt | 0%
Cn1ncc(C#N)c1/N=C/N1CCCCCC1 | 5% | -1.2% | 6 | -14%
Cc1csc(NC(=O)Cc2coc3cc(C)c(C(C)C)cc23)n1 | 26% | 0.4% | -11 | -6%
Cc1c(Cl)cccc1NC(=S)NCc1ccc(F)cc1 | 5% | -1.9% | nt | 16%
CC1(C(=O)OCC(=O)Nc2ccc3ccccc3c2)CC1(Cl)Cl (stereo unspecified) | -33% | -0.2% | 2 | -5%
N=C1/C(=C\c2ccc(SCc3ccco3)o2)C(=O)N=C2SC=NN12 | -25% | ? | -7 | ?
O=C(O)CNC(=S)N(Cc1ccccc1)Cc1ccccc1F | 0% | 2.5% | 0[21.1 µM] | -11%
COc1ccc(NC(=O)CSc2nc3ccccc3c(=O)n2-c2ccc3c(c2)OCO3)c(OC)c1 | -3% | 0.0% | -10 | -11%
Cc1nn(-c2ccccc2)c(Cl)c1/C=N/Nc1ccc(Cl)c(C(=O)O)c1 | -34% | 0.1% | -3 | 23%
Fc1ccc(-c2cc(-c3nnc4n3CCCCC4)c3ccccc3n2)cc1 | -14% | 0.9% | 2 | 6%
O=c1c2ccccc2ncn1-c1ccc(Cl)cc1[N+](=O)[O-] | -6% | 0.7% | -8 | 11%
NC(=O)C1=C[C@@H](c2ccc3c(c2)OCO3)C[C@@H](OCCCCO)O1 | nt | ? | nt | 6%
O=C(Nc1ccc2c(c1)OCO2)C1CC(c2ccccc2O)=NO1 (stereo unspecified) | -15% | -1.5% | nt | 10%

Arranged by SMILES length (highest first): part of the list above.
SMILES | miR-21 FLuc | Rango complex inh | GLA inh pH 4.5 | Rango dissoc inh
COc1ccc(NC(=O)CSc2nc3ccccc3c(=O)n2-c2ccc3c(c2)OCO3)c(OC)c1 | -3% | 0.0% | -10 | -11%
NC(=O)C1=C[C@@H](c2ccc3c(c2)OCO3)C[C@@H](OCCCCO)O1 | nt | ? | nt | 6%
Cc1nn(-c2ccccc2)c(Cl)c1/C=N/Nc1ccc(Cl)c(C(=O)O)c1 | -34% | 0.1% | -3 | 23%
O=C(Nc1ccc2c(c1)OCO2)C1CC(c2ccccc2O)=NO1 (stereo unspecified) | -15% | -1.5% | nt | 10%
O=C(O)CNC(=S)N(Cc1ccccc1)Cc1ccccc1F | 0% | 2.5% | 0[21.1 µM] | -11%

Going on with the list.
SMILES | miR-21 FLuc | Rango complex inh | GLA inh pH 4.5 | Rango dissoc inh
CCc1ccc(-c2cn(-c3nc(C)cc(C)n3)c(=N)o2)cc1 | 21% | -0.6% | -1 | 0%
COc1ccc(C(=O)NCc2ccncc2)cc1OC | 0% | -5.4% | 13 | 3%
O=C(NCC1CCCN(C(=O)c2cccc(C(F)(F)F)c2)C1)c1ccc(F)cc1 (stereo unspecified) | 3% | 1.1% | nt | 0%
CN(C)Cc1cc2ccccc2c2c1COC2 | -2% | 0.4% | 1 | 4%
O=c1[nH]c(C2CCCN(S(=O)(=O)c3ccccc3)C2)nc2c1nnn2Cc1ccccc1 (stereo unspecified) | -14% | 1.5% | -1 | 9%
CN(Cc1ccccc1)S(=O)(=O)c1ccc(NS(C)(=O)=O)cc1 | 2% | -0.6% | -13 | -10%
Cc1ccc(CNS(=O)(=O)c2ccc(CN3C(=O)c4cccnc4C3=O)s2)o1 | 3% | -2.9% | nt | -10%
CCOc1cccc(-c2cc(C(=O)Nc3ccon3)c3ccccc3n2)c1 | 16% | 11% | nt | -7%
CC(C)CCN(C(=O)Nc1ccc(Cl)cc1)C1CCN(C(C)C)CC1 | -20% | 2.4% | -11[21.1 µM] | -4%
O=C(O)C(Cc1ccc(Cl)cc1)Sc1nc2ccccc2[nH]1 (stereo unspecified) | 1% | 2.8% | nt | -4%
Cc1ccc(S(=O)(=O)NCc2c(-c3ccccc3)c3cc(Cl)ccc3[nH]c2=O)cc1 | -7% | 3.1% | 4 | 13%
Cc1ccc(C2=NC(=O)/C(=C/c3cc(O)c(O)c(Br)c3)S2)cc1 | -1% | ? | -10 | ?
Cc1ccc(/C=C/C(=O)c2c(C)cc(C)[nH]c2=O)cc1 | ? | -1.9% | ? | 0%
COc1ccc(O)c(CN2CCC(n3nccc3NC(=O)C3CCCC3)CC2)c1 | -1% | -2.9% | nt | -15%
CCCCCN(C(=O)CCC(=O)OCCOc1ccccc1Cl)c1c(N)n(CCCC)c(=O)[nH]c1=O | nt | -2.9% | nt | -5%
CCCCC12CN3CC(C)(CN(C1)C3c1ccc([N+](=O)[O-])o1)C2=O (stereo unspecified) | 6% | 0.5% | 4 | -3%
CCCCCNC(=O)c1ccc2c(c1)ncn2-c1ccc(OC)cc1 | -21% | 1.9% | nt | 12%
Cc1ccc(NC(=S)N2CCN(S(C)(=O)=O)CC2)cc1C | -4% | 3.0% | nt | 0%
Cc1ccnc2nc(C(=O)OCC(=O)NC3CCC(C)CC3)nn12 (stereo unspecified) | nt | -1.6% | nt | 9%
CCc1nonc1NC(=O)COc1cc(C)c(Cl)c(C)c1 | 0% | 7.0% | nt | -10%
COc1ccc(-c2csc(Nc3cccc(C)n3)n2)cc1 | -35% | -2.5% | nt | -12%
O=S(=O)(Nc1nc2ccccc2nc1-[n+]1cccc(N=C([O-])c2ccccc2Cl)c1)c1ccccc1 | -7% | nt | -6 | nt

Screening data (PubChem)
